Screening results as filed in PubChem BioAssay.
TRPML1 ag: qHTS for Agonists of the Human Mucolipin Transient Receptor Potential 1 (TRPML1). Mucolipin-1 (Homo sapiens), Q9GZU1. TRPML1-expressing cells, Ca2+ dye fluorescence, FDSS; host cell line not named in the record; reference of the full effect not given here. activation, % (test concentration not listed). actives 0.12% (n = 410,000). AID 624414, 2012; in the data active = activation above about 50%; inconclusive = about 30% to 50%; inactive = below about 30%; note: 0% is about no effect; the text of the record puts the active cut at 80%
Target sequence (Q9GZU1 whole entry, looked up): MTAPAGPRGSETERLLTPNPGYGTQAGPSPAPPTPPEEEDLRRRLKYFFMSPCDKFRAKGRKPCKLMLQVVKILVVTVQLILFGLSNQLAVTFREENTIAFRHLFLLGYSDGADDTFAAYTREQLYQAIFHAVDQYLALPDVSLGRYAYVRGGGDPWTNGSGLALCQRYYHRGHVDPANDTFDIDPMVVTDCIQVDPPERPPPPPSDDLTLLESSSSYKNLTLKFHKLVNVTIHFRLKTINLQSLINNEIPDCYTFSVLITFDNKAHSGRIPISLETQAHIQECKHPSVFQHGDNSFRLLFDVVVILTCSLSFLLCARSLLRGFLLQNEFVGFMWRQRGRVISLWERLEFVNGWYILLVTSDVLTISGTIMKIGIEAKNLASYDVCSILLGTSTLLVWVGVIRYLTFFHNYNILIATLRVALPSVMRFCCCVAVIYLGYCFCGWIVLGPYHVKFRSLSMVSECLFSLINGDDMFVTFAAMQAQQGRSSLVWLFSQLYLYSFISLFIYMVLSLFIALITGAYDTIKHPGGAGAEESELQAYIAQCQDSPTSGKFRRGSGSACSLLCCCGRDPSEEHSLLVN
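Tet-induced TRPML1-DL cells, 1,500 per well, cultured overnight, were loaded with a no-wash Ca2+ dye for 45–90 min. Calcium fluorescence was recorded on the FDSS for 110 s after compound addition, before the EC80 agonist (4 uM 54-4) was added.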
TRPV1 PAM: HTS Assay for Compounds that Act as Potentiators of the Vanilloid Receptor 1. TRPV1-expressing cells, Fluo-8 calcium influx, capsaicin EC20 potentiation; host cell line not named in the record; control for the full effect not named in the record. potentiation, % at 8.33 µM. actives 0.02% (n = 320,000); active means potentiation above 80%; inconclusive means 30% to 80%; inactive means below 30%; note: 0% is about no effect
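Fluo-8 calcium influx in TRPV1-expressing cells, kinetic read (ex 480/em 520 nm). Compound added and read 3 min for agonist activity, followed by capsaicin at EC20 final and 2 min further read for enhancement.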
TRPML1 blocker: qHTS for Inhibitors of the Human Mucolipin Transient Receptor Potential 1 (TRPML1); Mucolipin-1 (Homo sapiens), Q9GZU1; TRPML1-inducible cells, Ca2+ dye fluorescence, FDSS; stronger effect = lower value; inhibition of EC80 agonist-evoked calcium signal; activity change, negative = inhibition, % (no concentration beside the values); actives 0.02% (n = 390,000); AID 624415, 2012; in the data active means activity change below about -50%; inconclusive means about -30% to -50%; inactive means above about -30%;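 note: stimulus is agonist 54-4 at its EC80 concentration; % is set by controls: 0 for no effect and ±100 for the full control effect; compound concentration not given in the record; the text of the record puts the active cut at -80%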
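Calcium fluorescence in TRPML1-DL cells induced overnight with Tet: a 110 s read after compound pin addition, then a 110 s antagonist read after challenge with 54-4 at 4 uM final (EC80).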
Sfp PPTase inh: qHTS Assay for Inhibitors of Bacillus subtilis Sfp phosphopantetheinyl transferase (PPTase). 4'-phosphopantetheinyl transferase ffp (Bacillus subtilis), Q9F4F7. Biochemical Sfp PPTase activity, qHTS. Potency, µM, for the others: max response, negative = inhibition, actives largely listed as inhibitors. actives 3.5% (n = 310,000); active = well fitted inhibition curve with a large enough effect; inconclusive = small, poorly fitted or top-dose-only effect, or another doubt; inactive = no such curve, though single readings can be large or run the other way;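 note: the enzyme is Sfp with the accession as filed and its product quenches rhodamine fluorescence; potency is the fitted concentration of half-maximal effect; 0% = enzyme reaction without inhibitor and -100% = no enzyme wells; top concentration of the series not given in the record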
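Reaction rates are the 30-min fluorescence difference (ex 525, em 598 nm) in wells containing 15 nM Sfp, 5 uM rhodamine-CoA and 12.5 uM BHQ-2-YbbR at pH 7.6 with 10 mM MgCl2.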
Menin MLL FP FL: qHTS Assay for Inhibitors Targeting the Menin-MLL Interaction in MLL Related Leukemias: Competition With Fluorescein Labeled MLL-derived Peptide; FP activity change, % at 61.4 µM; Fluorescence polarization, fluorescein-MLL peptide displacement from menin; AID 1766, 2009; 290,000 tested, under 10 active; inconclusive = falling polarisation curve, or a change in total fluorescence; inactive = total fluorescence flat and polarisation flat or rising; no compound was filed as active; the % refers to the polarisation; negative = inhibition;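 note: % of control where 0% means no effect; inhibitors lower the polarisation; unlabelled MLL peptide was the positive control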
PINK1 expr mod: A Quantitative High throughput Screen to Identify Chemical Modulators of PINK1 Expression | PINK1 immunofluorescence, high-content cytometry, 24 h | Potency, µM (top dose mostly 76.6 µM), without a hit: at the top dose activation (PINK1 increase), most hits filed as activators | actives 0.2% (n = 410,000); active = well fitted activation curve with a large enough effect; inconclusive = small, poorly fitted or top-dose-only effect; inactive = flat fitted curve, though single readings scatter; cell line not stated here;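 note: potency is the fitted concentration of half-maximal effect; % of control where 0% means no effect; nearly all actives have a fitted effect of over 65% in size; a mitochondrial uncoupler was the plate control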
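PINK1 protein level read as immunofluorescence by microplate cytometer in a fixed, stained stable cell line after 24 h exposure to five compound concentrations, with CCCP as control.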
ClpP mod: qHTS Assay for Activators of ClpP | actives 1.9% (n = 340,000) | purified B. subtilis ClpP, FRET peptide cleavage, 20 min | Potency, µM (titrated, usually from 57.5 µM), without a hit: at the highest dose activity change, negative = active | ATP-dependent Clp protease proteolytic subunit (Bacillus subtilis (strain 168)), P80244; active = well fitted falling curve with a large enough effect; inconclusive = small, poorly fitted or top-dose-only effect; inactive = no such curve, though single readings can be large or run the other way; note: potency is the fitted concentration of half-maximal effect; the source files actives as falling curves though it sought activators and does not explain the sign; nearly all actives have a fitted effect of over 65% in size; many hits overshoot -100%
Target sequence (P80244 whole entry, looked up): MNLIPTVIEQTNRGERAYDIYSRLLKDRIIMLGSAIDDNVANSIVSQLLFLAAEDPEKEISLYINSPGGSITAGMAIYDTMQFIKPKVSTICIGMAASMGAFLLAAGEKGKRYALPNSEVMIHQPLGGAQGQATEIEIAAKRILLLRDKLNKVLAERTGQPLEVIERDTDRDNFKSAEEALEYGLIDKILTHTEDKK
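Buffer: 100 mM Tris/HCl pH8, 100 mM KCl, 0.05% low protease BSA, 2.5% glycerol, 0.01% Tween-20. ClpP 10 microg/mL final; 20 min RT; delta FRET normalized to ADEP and DMSO controls.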
* marks the source's active call; other numbers are inactive results; ? = inconclusive; / = no result given; [ ] = remark or other dose.

no. | Molecule | TRPML1 ag | TRPV1 PAM | TRPML1 blocker | Sfp PPTase inh | Menin MLL FP FL | PINK1 expr mod | ClpP mod
1 | COc1ccccc1NC(=O)CSC1=NC(=O)C(Cc2ccccc2)C(=O)N1 (stereo not drawn) | -0.2 | -3 | -5 | 23% | 2.1 | 2.7% | /
2 | Cc1cc(C)n2nc(C(=O)OCC(=O)Nc3cc(Cl)ccc3C)nc2n1 | -0.3 | 5 | -24 | / | / | 0.5% | -1.4%
3 | Cc1ccc2c(C)cc[n+](CCCS(=O)(=O)[O-])c2c1 | 0.3 | 8 | -6 | 17% | -0.4 | 0.2% | -27%
4 | O=C(NNC(=O)C1CC=CCC1)c1ccccc1Cl (stereo not drawn) | -0.8 | 4 | -5 | 3% | 2.9 | -1.5% | -1.9%
5 | O=C1/C(=C\c2ccco2)NC(=S)N1c1ccccc1 | 1.3 | -1 | 17 | -17% | 1.7 | -2.8% | /
6 | [O-][n+]1c2ccccc2cc2ccccc21 | -0.4 | ? | 2 | / | / | 0.0% | 4.3%
7 | COc1cc(C2CC(=O)Nc3cc4c(cc32)OCCO4)cc(Br)c1OC (stereo not drawn) | 0.0 | / | -9 | / | / | 3.9% | -0.7%
8 | CCOC(=O)c1cc(S(=O)(=O)N2CCN(C(=O)OCC)CC2)cn1C | 0.0 | -7 | 4 | 9% | 0.3 | -1.6% | -1.6%
9 | CCOC(=O)c1c(NC(=S)NC)sc2c1CC(C)(C)SC2 | -0.3 | -4 | -9 | 20µM* | 17 | -0.4% | /
10 | Cc1nn(CC(=O)N(CC(C)C)C2CCS(=O)(=O)C2)c(C)c1[N+](=O)[O-] (stereo not drawn) | -0.1 | / | 6 | / | / | 1.6% | 1.2%
11 | O=C(Nc1ccc(S(=O)(=O)N2CCCC2)cc1)c1cccc(OC(F)F)c1 | 3.1 | -13 | 18 | / | / | -3.5% | -2.2%
12 | Cc1c(C(=O)N/N=C/c2ccc(N(C)C)cc2)[nH]c2ccc(Cl)cc12 | 0.5 | -2 | 10 | 2% | 0.2 | 9.4% | 32µM*
13 | CC(C)C(CO)N1CCN(Cc2ccccc2)CCC1=O (stereo not drawn) | -0.3 | 2 | -9 | ? | 6.5 | 1.3% | 0.5%
14 | CCCCCCN1CCN(C2CN(C3CCCCC3)S(=O)(=O)C2)CC1 (stereo not drawn) | -0.5 | / | / | / | / | 0.6% | -3.9%
15 | O=S(=O)(CCNCCc1ccccc1)NCc1ccccc1 | 0.5 | / | -1 | / | / | -0.8% | -3.9%
16 | CCn1cnnc1SCC(=O)c1c(N)n(C2CC2)c(=O)[nH]c1=O | -0.3 | -5 | 6 | / | / | 5.5% | -2.7%
17 | CCc1nc2c(OCCOc3ccc(F)cc3)cccn2c1N(C)C(=O)c1ccccc1F | -0.7 | / | / | / | / | 0.7% | 0.3%
18 | NC(=S)NN=C1C2CC3CC(C2)CC1C3 | 0.3 | -7 | -9 | 32µM* | 0.7 | -1.1% | /
19 | CCN(CC)C(=O)Oc1ccc2c(=O)c(-c3ccc(OC)cc3)c(C)oc2c1 | -0.2 | 1 | 11 | 5% | -1.3 | 1.6%[38.3 µM] | -0.7%
20 | Cc1ccccc1-c1nsc(SCC(=O)NCc2ccc3c(c2)OCO3)n1 | 2.4 | 22 | 9 | -21% | 0.1 | 0.1% | -8.7%
21 | COc1ccc(/C=C/C(=O)OCC(=O)NCC2CCCO2)cc1 (stereo not drawn) | 1.3 | -5 | -20 | 5% | 6.5 | 3.3% | -10%
22 | Cc1n[nH]c(=S)n(/N=C/c2cccs2)c1=O | 0.7 | / | -10 | ? | 0.7 | 3.0% | /
23 | Cc1noc(C)c1CSc1nc2ccccc2c(=O)n1-c1ccccc1 | 4.1 | -18 | 6 | -5% | 2.4 | 17% | -1.2%
24 | COc1cccc(C2NC(=O)NC(C)=C2C(=O)Nc2cc(OC)ccc2OC)c1 (stereo not drawn) | 0.1 | -6 | 25 | 6% | 5.6 | -3.6%[38.3 µM] | -3.6%
25 | O=C(CCCN1C(=O)c2ccccc2C1=O)Nc1nnc(C2CC2)s1 | -0.3 | 4 | -1 | 5% | -2.0 | -2.5% | /
26 | Cc1nc2nc(SCC(=O)NCCCN3CCCC(C)C3)nn2c(C)c1Cc1ccccc1Cl (stereo not drawn) | -0.1 | 4 | ? | 19% | 2.2 | -0.1% | -9.7%
27 | CC(=O)N=c1c(C#N)cc2c(=O)n3cccc(C)c3nc2n1Cc1ccco1 | -1.1 | -4 | -7 | -21% | 3.4 | 12% | 3.7%
28 | Cc1n[nH]c(=O)c2c1nnn2Cc1ccc(F)cc1 | 1.0 | 10 | -16 | 7% | 1.3 | -3.1% | -2.9%
29 | CC(=O)Nc1ccc(S(=O)(=O)NCCC(=O)OCC(=O)c2ccccc2)cc1 | 0.0 | ? | -5 | / | / | 2.4% | -5.4%
30 | O=S(=O)(Nc1ccc(Oc2ncccn2)c(Cl)c1)c1ccc(F)cc1 | 0.1 | 1 | -17 | 3% | 8.8 | -0.8% | -18%
31 | CCOc1ccc(NC(=O)NCCN2CCN(c3cc(Cl)ccc3C)CC2)cc1 | -0.2 | / | 14 | / | / | 0.6% | 0.2%
32 | Cc1ccc(NC(=O)CCc2ccccc2)cc1S(=O)(=O)N1CCOCC1 | 0.9 | / | -10 | / | / | -1.1% | 0.2%
33 | CC(C)OC(=O)N(C)C[C@@H]1OCc2cn(nn2)CCCC(=O)N([C@H](C)CO)C[C@H]1C | -0.4 | / | 47 | / | / | 3.9% | -2.2%
34 | COc1ccc(OC)c(-c2nc(C(N)=O)c3[nH]c(=O)n(-c4ccc(F)cc4)c3n2)c1 | -1.2 | 10 | 4 | -11% | 1.5 | 2.6% | -5.4%
35 | CC(C)C(NC(=O)CSc1ccc(Cl)cc1)C(C)C | -0.1 | -12 | -4 | 31%[activator] | -2.9 | 3.6%[38.3 µM] | 0.9%
36 | CC(C)Oc1ccccc1/C=N/NC(=O)c1ccc(F)cc1 | 1.2 | -10 | -3 | -15% | 1.2 | 1.5% | -4.8%

Compound profiles (already shown).
`[O-][n+]1c2ccccc2cc2ccccc21` in the list: TRPML1 ag = -0.4; TRPV1 PAM = ?; TRPML1 blocker = 2; Sfp PPTase inh = /; Menin MLL FP FL = /; PINK1 expr mod = 0.0%; ClpP mod = 4.3%
`Cc1n[nH]c(=S)n(/N=C/c2cccs2)c1=O` in the list: TRPML1 ag = 0.7; TRPV1 PAM = /; TRPML1 blocker = -10; Sfp PPTase inh = ?; Menin MLL FP FL = 0.7; PINK1 expr mod = 3.0%; ClpP mod = /

Next section
no. | Molecule | TRPML1 ag | TRPV1 PAM | TRPML1 blocker | Sfp PPTase inh | Menin MLL FP FL | PINK1 expr mod | ClpP mod
37 | O=C(N/N=C/c1cccnc1)c1ccccc1OCc1cccc(Br)c1 | 0.5 | 23 | -1 | -3% | -0.2 | 0.8% | /
38 | CCCN(CCC)CC(O)Cn1cc(/C=C/C(=O)c2ccc(OCC)cc2)c2ccccc21 (stereo not drawn) | 1.4 | / | -9 | / | / | -6.1% | -7.2%
39 | Clc1ccc(CCNC(c2cccc(Cl)c2)c2nnc(-c3ccccc3)o2)cc1 (stereo not drawn) | 4.5 | / | 21 | / | / | 0.2% | -9.4%
40 | O=c1oc2ccccc2n1CCCCCn1c(=O)oc2ccccc21 | 2.0 | -7 | -4 | 3% | 2.6 | -0.7% | -1.3%
41 | O=C(CSc1ccc2nnc(-c3ccc(F)cc3)n2n1)N1CCOCC1 | -0.5 | / | 5 | / | / | 1.5% | -22%
42 | CC1CCCN(c2nc(N(C)c3ccccc3)nc(N)c2[N+](=O)[O-])C1 (stereo not drawn) | 1.9 | 2 | -10 | 12% | 0.9 | 11% | -4.4%
43 | CCN(C(=O)COc1cc(=O)n(C)c2ccccc12)c1cccc(C(F)(F)F)c1 | 0.0 | / | 49 | / | / | 1.8% | -6.4%
44 | CN(C(=O)COC(=O)COc1ccc2ccccc2c1)c1ccccc1 | -0.2 | / | 20 | / | / | 1.6% | -1.1%
45 | Cc1cc(NC(=O)C2CCCN(S(=O)(=O)c3cn(C)cn3)C2)ccc1Br (stereo not drawn) | 1.1 | / | -6 | / | / | 0.2% | 0.9%
46 | O=C(Nc1ccc2c(c1)Cc1ccccc1-2)c1ccccc1F | 1.3 | / | 25 | / | / | 8.5% | /
47 | CCn1c(SCC(=O)Nc2ccccc2N2CCOCC2)nnc1-c1ccccc1 | -0.2 | 3 | 4 | 5% | 1.2 | -0.1% | 1.1%
48 | C=CCN1C(=O)C(CC(=O)O)SC1=Nc1c(C)n(C)n(-c2ccccc2)c1=O (stereo not drawn) | -0.2 | 19 | 7 | 12% | 1.8 | / | -0.7%
49 | COc1ccc(Cc2c(-c3cccc(Br)c3)nc3ccc(Cl)cn23)c(C)c1 | 0.2 | / | -14 | / | / | 2.1% | -8.9%
50 | Cc1c(NS(=O)(=O)c2ccc3c(c2)Cc2ccccc2-3)c(=O)n(-c2ccccc2)n1C | 2.3 | -8 | -17 | 17% | -0.3 | 2.8% | 0.4%
51 | C/C(=N\NC(=S)NC1CCCCC1)c1ccc(Cl)c(Cl)c1 | 1.6 | -17 | -24 | 34%[activator] | 2.0 | 4.1% | -0.2%
52 | CCOC(=O)C1CCCN(C(=O)Cn2cnc3sc(C)c(S(=O)(=O)N4CCOCC4)c3c2=O)C1 (stereo not drawn) | 0.0 | 1 | -2 | -11% | -0.4 | -0.6% | /
53 | CCN(CC)CCCNC(=O)c1ccc2c(c1)N(Cc1c(F)cccc1Cl)C(=O)c1ccccc1S2 | 6.3 | / | -9 | / | / | 0.2% | -3.0%
54 | CCOC(=O)C1(C)CCN1C(=O)c1cccc2ccccc12 (stereo not drawn) | -0.7 | / | / | / | / | 3.5% | -9.4%
55 | COCCNc1ccc(-c2nc(-c3ccccn3)no2)cc1[N+](=O)[O-] | -0.6 | / | 12 | / | / | 1.6% | 2.1%
56 | CCCNC(=O)C1(C)CCN(Cc2ccc(C)c3ccccc23)C1 (stereo not drawn) | -0.8 | / | / | / | / | -0.1% | -2.5%
57 | O=C(CSc1nc2c([nH]c3ccccc32)c(=O)n1-c1ccccc1)c1ccc(Cl)cc1 | -0.3 | / | 14 | / | / | 0.6% | -26%
